Source: PubChem BioAssay
Bead autofluor – compound fluorescence in toxin protease inhibitor counterscreen; compound autofluorescence counterscreen, microsphere flow cytometry; hits give high values; fluorescence intensity (test concentration not listed); 360,000 tested, 3.1% active;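 active means at least 3 SD above the mean of all compounds, about 16000 in these data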;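 further: 100 nL of 1 mM stock went into each well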
RN4220 kill – S. aureus RN4220 growth inhibition; 330,000 tested, 0.33% active; OD600, 16 h; inhibition, % (no concentration beside the values);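 active means z-score of -3 or lower and OD600 up to 0.18 on both plates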;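 further: plate controls were untreated cells for no effect and reference antibiotic for full effect; stock transfer was 100 nL into about 80 µL; one replicate is shown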
Sa ugtP lethal – compounds lethal to S. aureus RN4220 ugtP deletion mutant | growth inhibition, % (test concentration not listed) | 330,000 tested, 0.54% active | OD600 growth, 16 h; some inactives read as strong as hits;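 active means z-score under -3 and OD600 up to 0.15 on both plates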;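 further: plate controls were untreated wells for no effect and antibiotic for full effect; wells of about 80 µL received 100 nL stock; the first replicate is given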
PrP 5UTR inh – inhibition of PrP 5' UTR reporter expression; cell-based PrP 5' UTR mRNA reporter, plate reader; inhibition, % (no concentration beside the values); 340,000 tested, 0.35% active;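 active means every replicate at 50% or more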;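 further: 0 = median of the neutral control wells; tested in H4 reporter cells; numbers are from one replicate; inactives centre near -14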
BJeLR viability – kills HRASV12-expressing BJeLR cells; BJeLR (HRASV12) viability, CellTiter-Glo ATP luminescence, 48 h; reference of the scale not given here; inhibition, % (no concentration beside the values); 300,000 tested, 0.17% active;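 active means replicate mean above 50%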;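 further: 50 nL library stock added to about 25 µL; numbers are from one replicate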
Mtb hypoxia rep – inhibitors of hypoxia-regulated fluorescent reporter in Mycobacterium tuberculosis; AID 1159583; fluorescence inhibition, % (no concentration beside the values); 300,000 tested, 0.1% active; M. tuberculosis hypoxia-regulated fluorescent reporter, fluorescence;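 active means 35 to 45% if threefold the growth effect, above 45% if 1.5-fold the growth effect; inactive means the rest, general growth blockers included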;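 further: wells of about 50 µL received 100 nL stock; 0% = vehicle wells and 100% = reference inhibitor wells; whole bacteria with a GFP reporter of the hypoxia response; strong numbers were not always called active; many hits fall short of the cut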
Mtb hypoxia rep growth – further read-out of Mtb hypoxia rep, marked with its call; growth inhibition, %; measured here: M. tuberculosis growth (absorbance);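 0% = vehicle and 100% = reference antibiotic; read after six days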
* marks the source's active call; other numbers are inactive results; . = no result given.

SMILES	Bead autofluor	RN4220 kill	Sa ugtP lethal	PrP 5UTR inh	BJeLR viability	Mtb hypoxia rep	Mtb hypoxia rep growth
Cc1cccc(C)c1-n1nnnc1S(=O)(=O)Cc1ccccc1Cl	15998	16	14	-10	.	10	7
Cc1nc2c(cc(Oc3ccc(S(=O)(=O)N4CCOCC4)cn3)c3ccsc32)s1	3984	1.9	-8	-33	0	17	5
CC(Sc1ncn[nH]1)C(=O)Nc1cc(C(F)(F)F)ccc1Cl (stereo not given)	2918	-0.4	-2	-7	.	3	-5
Cc1ccc(S(=O)(=O)n2oc(=O)c(C3CCCCC3)c2N)cc1	4029	2.8	-3	-21	.	7	-1
CC(CC(=O)Nc1cc(Cl)ccc1Cl)=NNC(=O)COc1cccc(C)c1	.	1.9	9	.	.	12	4
Cc1cccc(OCC(=O)O/N=C(\N)c2ccc(Br)cc2)c1	4862	3.6	4	-29	0	0	2
c1csc(CN2CCN(Cc3cccs3)C2c2cccs2)c1	2400	0.3	-4	-8	.	.	.
CC(C)=NN1C(=O)c2ccccc2NC1(C)C	3668	4.0	8	-28	4	7	9
O=C(CSc1nc2cc(Cl)ccc2s1)N1CCN(C(=O)c2ccco2)CC1	3141	0.1	-15	3	-5	6	5
COC(=O)N/N=C/c1ccc(OCCSc2ccc(Cl)cc2)c(OC)c1	10852	.	.	-9	5	.	.
CCN(C(=O)c1cccc(F)c1)c1ccccc1C	8501	6.6	-8	-20	-7	13	9
CN1CC(c2ccccc2)Oc2ccccc2C1=S (stereo not given)	5630	1.3	-1	-29	0	-1	20
CN(c1cccc(NC(=O)CSc2ccc(Cl)cc2)c1)S(C)(=O)=O	11061	12	18	-29	1	15	7
Cc1cc2c(C)nc(Cc3ccccc3)nc2o1	4650	-4.0	4	-16	-7	.	.
CNC(=O)c1cc(Nc2nnc(-c3ccc(C)c(S(N)(=O)=O)c3)c3ccccc23)ccc1OC	3521	2.8	14	.	-16	4	1
COc1ccccc1/C=C/CN1CCSCC1	3463	3.1	1	-16	4	17	8
COc1ccccc1CNC(=O)c1ccc2c(=O)n(CCCN3CCCC3=O)c(=S)[nH]c2c1	3271	11	5	-20	-1	2	4
O=C(O)c1n[nH]nc1-c1ccccc1	2011	2.7	-5	-27	7	1	-2
Cc1ccc(C)c(NC(=O)Cn2nnc(C(=O)NCc3cccs3)c2N)c1	3351	0.2	6	-21	28	4	-4
CCOC(=O)C1CCCN(C(=S)Nc2cccc(Cl)c2C)C1 (stereo not given)	7249	3.9	3	1	-9	-1	2

Profiles as entered above:
Record of `Cc1cccc(C)c1-n1nnnc1S(=O)(=O)Cc1ccccc1Cl` → Bead autofluor = 15998; RN4220 kill = 16; Sa ugtP lethal = 14; PrP 5UTR inh = -10; BJeLR viability = .; Mtb hypoxia rep = 10; Mtb hypoxia rep growth = 7
Record of `Cc1cccc(OCC(=O)O/N=C(\N)c2ccc(Br)cc2)c1` → Bead autofluor = 4862; RN4220 kill = 3.6; Sa ugtP lethal = 4; PrP 5UTR inh = -29; BJeLR viability = 0; Mtb hypoxia rep = 0; Mtb hypoxia rep growth = 2

(more compounds)
SMILES	Bead autofluor	RN4220 kill	Sa ugtP lethal	PrP 5UTR inh	BJeLR viability	Mtb hypoxia rep	Mtb hypoxia rep growth
CNS(=O)(=O)c1ccc(NC(=O)Nc2cccc(F)c2)cc1	1962	-0.3	-6	-29	0	-3	4
Cc1nnsc1C(=O)N1CCN(c2ccc(C#N)cn2)CC1	4506	-2.2	8	-10	1	9	1
COC(=O)c1cccc(C(=O)N2CCCC(CNC(=O)c3ccccc3Cl)C2)c1 (stereo not given)	3381	5.6	0	-20	-3	4	-7
COCCCNC(=S)NNC(=O)c1csc2ccccc12	2442	8.9	3	-13	-7	12	7
O=C(CCn1nc(-c2ccc(Cl)cc2)ccc1=O)N1CCN(c2ccc(F)cc2)CC1	4007	3.0	-9	5	-4	-12	8
CCCCn1c(SCn2nnc3ccccc3c2=O)nc2cc(S(N)(=O)=O)ccc21	6545	11	4	-44	-3	11	10
O=C(NCCc1csc(-c2ccc(Cl)cc2)n1)c1ccco1	4359	1.1	7	-6	1	7	-1
COc1ccc(C(=O)Nc2ccc(NC(=O)c3cccc(OC)c3)cn2)cc1	5438	-1.3	-7	3	2	-1	10
CCOC(=O)c1cnc(-c2ccccc2O)nc1Cl	1953	54	10	-36	-16	11	9
CCCCOc1ccc(CC(=O)NCC(=O)O)cc1	10249	4.5	0	-13	-1	6	4
COc1ccc(N2Cc3ccccc3C2=NC(=O)Nc2ccccc2)cc1	.	13	4	.	.	-3	6
CCC(CC)C(=O)OCC(=O)Nc1cc(OC)c([N+](=O)[O-])cc1C	2512	3.0	3	1	-8	-1	7
COc1ccc(F)cc1S(=O)(=O)N1CCC2(CC1)OCCN2S(=O)(=O)c1ccccc1	5627	-1.6	0	5	1	-3	7
COc1ccc(C(=O)OCC(=O)c2ccc3c(c2)NC(=O)CO3)cc1OC	3504	2.0	1	-1	.	9	3
CN(C)c1ccc(/C=C/c2ccc3c4ccccc4ccc3[n+]2-c2ccccc2)cc1	1663	98*	98*	48	.	.	.
CC(=O)Nc1ccc(OCc2cccc([N+](=O)[O-])c2)cc1	2490	5.2	1	4	1	1	-2
Cc1ccc(S(=O)(=O)N2CCC(C(=O)NCc3ccncc3)CC2)cc1	21375*	6.5	-2	-12	-4	3	7
Cc1cccc(NC(c2ccc(C)s2)c2ccc3ccc(C)nc3c2O)n1 (stereo not given)	2534	27	24	-21	-5	14	8
COc1ccccc1CNC(=O)CCCc1nnc2n(C)c(=O)c3sccc3n12	4303	4.5	8	6	7	2	-11
CC1(C)Cc2c(sc3c2C(=O)NC(c2cccnc2)N3)CO1 (stereo not given)	5818	3.4	2	-24	-1	3	3
COc1ccc(-n2c(C)cc(C=NNc3nnc(C)n3N)c2C)cc1	.	8.0	-6	.	.	24	19
O=C(CSc1cccs1)Nc1ccc(Cl)cc1	5826	-1.5	4	-77	-3	14	16
Cc1cc[n+](-c2nc3ccccc3nc2[N-]S(=O)(=O)c2ccccc2)cc1	1958	7.3	6	-5	-18	-11	-11
O=C(Nc1ccccc1N1CCOCC1)c1ccc(N2CCCC2=O)cc1	.	9.9	5	.	.	13	6
Cc1nnc(NC(=O)C2=COCCO2)s1	4960	0.3	2	-9	-3	-4	-2
NC(=O)COC(=O)c1ccccc1Nc1ccc(SC(F)F)cc1	11088	1.0	23	-13	18	8	17
CSc1ccc(CNC(=O)Cc2ccc(NC(=O)C3=C(C)OCCS3)cc2)cc1	5600	1.0	3	-78	37	-10	-6
O=C(c1cccs1)N1CCC(c2ccccc2)C1 (stereo not given)	3085	3.3	10	-74	7	.	.
O=C(O)C1CCCN1S(=O)(=O)c1ccc2[nH]c(=O)c(=O)[nH]c2c1 (stereo not given)	25018*	0.8	4	-45	-2	8	7
COP(=S)(OC)SCN1C(=O)c2ccccc2C1=O	4385	8.4	7	-21	0	0	7
CCc1ccc(Nc2ncc3c(n2)CC(C)(C)CC3=O)cc1	4521	0.5	15	-126	1	8	6
CCN(CC)C(=O)[C@H]1CC(CC(=O)NC/C=C(\C)CCC=C(C)C)C(=O)N2CCc3c([nH]c4ccccc34)[C@]12C (stereo not given in full)	3909	-2.0	-27	-10	.	-9	8
COc1cc(CN2CCSCC2)cc(OC)c1OC	5718	0.0	-2	0	1	8	19
Cc1ccc(NS(=O)(=O)c2ccc3c(c2)c(=O)n(C)c(=O)n3C)cc1F	4638	3.1	9	10	-1	.	.
Cc1cc(C)n(CCC(=O)Nc2ccc3c(c2)OCCO3)n1	5595	2.0	4	-26	5	2	-1
C/C(N)=C(/C#N)C(=O)CSc1nnc(-c2ccccc2)n1C	6015	1.8	6	-3	-11	21	3
COC(=O)c1ccc(NC(=O)CNC(=O)C2CCCCC2)c(C)c1	4389	-4.5	0	-19	-4	1	-14
CC1CCCC(C)N1C(=O)c1cc(F)c(F)cc1Cl (stereo not given)	2327	1.7	0	-14	9	.	.
Cc1ccc(S(=O)(=O)NCC(=O)NCC(=O)OCC(=O)NC(=O)NC(C)(C)C)cc1C	4307	-0.7	1	-37	6	10	-9
CC(=O)C1=C(O)C(=O)N(c2ccc(O)cc2)C1c1ccc(C)cc1 (stereo not given)	3588	2.8	5	-23	0	-2	0

An excerpt from above, limited to Mtb hypoxia rep, BJeLR viability and RN4220 kill:
| smiles | Mtb hypoxia rep | BJeLR viability | RN4220 kill |
| --- | --- | --- | --- |
| Cc1cc[n+](-c2nc3ccccc3nc2[N-]S(=O)(=O)c2ccccc2)cc1 | -11 | -18 | 7.3 |
| CC(CC(=O)Nc1cc(Cl)ccc1Cl)=NNC(=O)COc1cccc(C)c1 | 12 | . | 1.9 |

More records
Under each structure – Bead autofluor | RN4220 kill | Sa ugtP lethal | PrP 5UTR inh | BJeLR viability | Mtb hypoxia rep | Mtb hypoxia rep growth
> O=C(CCC(=O)c1cccs1)NCc1ccc(Cl)cc1
→ 2655 | -0.9 | 8 | -22 | 5 | . | .
> OC(CNCCc1ccc(C(F)(F)F)cc1)COC(c1ccccc1)c1ccccc1 (stereo not given)
→ 3276 | -1.3 | -23 | -13 | -4 | -2 | -1
> CCCCCCCCCCOC(=O)Cn1c(COc2cccc(OC)c2)[n+](C)c2ccccc21
→ 4453 | . | . | -1 | 1 | . | .
> COc1ccc(NC(=O)c2ccc(F)cc2)cc1S(=O)(=O)Nc1cc(C)ccc1Br
→ 2539 | -4.3 | 27 | -11 | -6 | 3 | 1
> CC1=CC2=NC(=O)CC(C)(C(=O)N(CC(=O)NC3CCCC3)c3cc(C)cc(C)c3)N2C=C1 (stereo not given)
→ 3945 | 5.6 | 8 | -15 | 1 | 2 | 3
> Cc1nn(CC(=O)NCc2ccco2)c(C)c1[N+](=O)[O-]
→ 4639 | 8.1 | 5 | -7 | 2 | 7 | -1
> O=C(/C=C/c1ccc2c(c1)OCO2)c1c(O)n(CCc2ccccc2)c(=O)[nH]c1=O
→ 6194 | 10 | 43 | . | -14 | 10 | -3
> COc1cc(OC)cc(-c2c(-c3cccs3)c3cc(-c4cnc(OC)nc4)ccc3n2C)c1
→ 3400 | 0.9 | -30 | 0 | . | 4 | 2
> COc1cc2c(cc1OC)C(=CC#N)NC(C)(C)C2
→ . | 3.6 | 1 | . | . | 5 | 4
> COc1cc(/C=N\N=C2/SC(CC(=O)O)C(=O)N2c2ccc(O)cc2)ccc1O (stereo not given)
→ 9640 | . | . | -9 | -4 | . | .
> COCCn1cc(C(=O)NCc2ccco2)c2c3ccccc3n(C)c2c1=O
→ 3495 | 2.0 | 3 | 25 | 5 | 10 | 2
> COc1cccc(C2C(=O)c3ccccc3C2=O)c1
→ 5547 | -2.9 | -3 | -23 | 1 | -5 | 12
> CCN(C(=O)COC(=O)/C(C#N)=C/c1ccc(N(C)C)cc1)C1CCS(=O)(=O)C1 (stereo not given)
→ 3926 | 2.0 | -1 | -38 | . | -25 | 8
> Cc1nn(-c2ccccc2)c(C)c1/C=N/n1c(-c2ccncc2)n[nH]c1=S
→ 2064 | . | . | 0 | 17 | . | .
> CC(=O)N1CC(C)Sc2ccc(S(=O)(=O)NC3CCCCC3)cc21 (stereo not given)
→ 5841 | 1.7 | 9 | -15 | 10 | 10 | 7
> O=C(Nc1ncc2c(n1)CC(c1ccco1)CC2=O)c1ccccc1 (stereo not given)
→ 4626 | -0.7 | 2 | -25 | -3 | 8 | 6
> CN1C(=O)c2ccccc2C(O)c2ccccc21 (stereo not given)
→ 5345 | 1.7 | -1 | -21 | 6 | 12 | 5
> COc1cc(/C=N/NC(=O)c2ccc(N(C)S(=O)(=O)c3ccccc3)cc2)cc(OC)c1OC
→ 2676 | . | . | -14 | 2 | . | .
> CCCCCSc1nc2c(cnn2-c2ccc(F)cc2)c(=O)[nH]1
→ 3955 | 5.1 | 10 | -10 | -7 | 1 | -2

Sorted by count of non-hydrogen atoms (highest first): part of the list above
Under each structure – Bead autofluor | RN4220 kill | Sa ugtP lethal | PrP 5UTR inh | BJeLR viability | Mtb hypoxia rep | Mtb hypoxia rep growth
> O=C(/C=C/c1ccc2c(c1)OCO2)c1c(O)n(CCc2ccccc2)c(=O)[nH]c1=O
→ 6194 | 10 | 43 | . | -14 | 10 | -3
> O=C(Nc1ncc2c(n1)CC(c1ccco1)CC2=O)c1ccccc1 (stereo not given)
→ 4626 | -0.7 | 2 | -25 | -3 | 8 | 6
> O=C(CCC(=O)c1cccs1)NCc1ccc(Cl)cc1
→ 2655 | -0.9 | 8 | -22 | 5 | . | .

The order is random. Share with any hit: about 3.9%.
